UCH37 DUB inh – inhibitors of human deubiquitinating enzyme UCH37; purified proteasome/UCH37, Ub-AMC cleavage fluorescence; inhibition, % (test concentration not listed); 0.33% of 330,000 active; AID 588478;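 active means mean of two replicates above 20%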;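 further: 0% = compound-free wells with enzyme and 100% = wells lacking proteasome; stock transfer was 100 nL into about 20 µL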
Target sequence (Q9Y5K5 whole entry, looked up): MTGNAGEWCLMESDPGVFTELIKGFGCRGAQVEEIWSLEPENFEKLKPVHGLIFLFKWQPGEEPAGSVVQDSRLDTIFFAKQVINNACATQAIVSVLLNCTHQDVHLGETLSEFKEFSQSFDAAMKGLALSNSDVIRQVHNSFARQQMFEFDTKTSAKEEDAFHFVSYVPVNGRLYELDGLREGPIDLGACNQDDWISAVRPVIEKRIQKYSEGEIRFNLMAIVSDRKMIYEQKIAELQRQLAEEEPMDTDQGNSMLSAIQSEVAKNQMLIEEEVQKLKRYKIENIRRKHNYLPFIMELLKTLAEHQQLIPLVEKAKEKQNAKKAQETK
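system = Proteasome-associated human UCH37 deubiquitinase | amount = 0.15 nM proteasome as dispensed | medium = pH 7.4 Tris-HCl (50 mM) with ovalbumin, ATP-MgCl2, DTT | incubation = 30 min preincubation with enzyme, 25 min cleavage at room temperature | detection = AMC fluorescence 355/460 nm | read-out basis = percent inhibition | controls = no-proteasome and no-compound wells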
LANA-H2A inh – blocks KSHV LANA binding to histone H2A/H2B; cell-free LANA-H2A/H2B peptide, fluorescence polarization; Q9QR71; 0.6% of 320,000 active; inhibition, % (no concentration beside the values); AID 2629; in the data active means inhibition mostly above about 10%, no sharp cut-off; inactive means mostly below about 6.7%;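 further: stock transfer was 7.5 nL into about 10 µL; 0% = median of vehicle wells and 100% = median of positive control wells; one replicate is shown; the record names a cut of 25% in any replicate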
ALR H2O2 inh – human ALR oxidase inhibition via reduced H2O2 | P55789 | purified ALR, DTT oxidation, H2O2 HRP-luminol luminescence | inhibition, % (test concentration not listed) | 3.8% of 290,000 active;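 active means mean and each replicate at 75% or more; inconclusive means only one of the two met; inactive means neither met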;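 further: stock transfer was 7.5 nL into about 7.5 µL; 0% = neutral wells and 100% = wells with inactivated enzyme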
B2AR ag – human beta-2 adrenergic receptor agonism by FAP. response, % (concentration not given with the values). AID 504454. Am2.2-beta2AR cells, FAP receptor internalization, flow cytometry; reference of the scale not given here. 0.43% of 340,000 active;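 active means response above a set limit, near 3 SD of response in nonfluorescent compounds, cut at about 42% in these data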;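 further: stock transfer was 100 nL into about 11 µL; a reference agonist was the positive control; negative values mostly stem from fluorescent compounds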
Target sequence (P07550 whole entry, looked up): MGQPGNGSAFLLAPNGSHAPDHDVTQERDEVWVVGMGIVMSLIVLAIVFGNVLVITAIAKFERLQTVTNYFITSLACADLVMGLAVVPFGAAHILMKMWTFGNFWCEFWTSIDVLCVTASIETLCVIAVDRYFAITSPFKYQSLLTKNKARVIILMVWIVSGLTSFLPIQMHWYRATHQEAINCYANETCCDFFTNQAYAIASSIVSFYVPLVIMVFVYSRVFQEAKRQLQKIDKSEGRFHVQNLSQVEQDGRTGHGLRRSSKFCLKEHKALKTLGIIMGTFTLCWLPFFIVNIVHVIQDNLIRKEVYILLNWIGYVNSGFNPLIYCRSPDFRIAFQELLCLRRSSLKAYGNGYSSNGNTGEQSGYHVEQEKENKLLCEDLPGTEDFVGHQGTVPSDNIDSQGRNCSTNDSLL
HNF4A DNA FP – change in binding of human HNF4 alpha to DNA; P41235; HNF4a-FITC DNA binding, fluorescence polarization, 1 h; activity change, % at 10 µM; 0.3% of 360,000 active; AID 1224865; in the data active means activity change above about 30%, passing the limit was not always enough;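 further: controls were the assay level and a saturating level of protein; the project sought stronger binding though the title names inhibitors; some compounds called inactive have numbers as strong as hits; positive values seem to mean higher polarization but the record does not say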
Ecoli growth – blocks Escherichia coli growth | OD600 absorbance (no concentration beside the values) | AID 1053175 | OD600, 23 h; active compounds read low | 0.21% of 330,000 active;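 active means OD600 absorbance below the run mean of sample wells minus 3.6 SD, in any replicate, cut at about 0.56 in these data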;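 further: stock transfer was 300 nL into about 60 µL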
FGF22 binding – FGF22 (human) thermal shift binding; calls only at 9.99 µM; 1.5% of 340,000 active; Q9HCT0; recombinant FGF22 thermal shift, SYPRO orange fluorescence; percent of sucrose octasulfate shift, DMSO zero;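 active means melting point raised past a set limit in the mean and every replicate; inconclusive means no clear call; three in four hits are not shown here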
Target sequence (Q9HCT0 whole entry, looked up): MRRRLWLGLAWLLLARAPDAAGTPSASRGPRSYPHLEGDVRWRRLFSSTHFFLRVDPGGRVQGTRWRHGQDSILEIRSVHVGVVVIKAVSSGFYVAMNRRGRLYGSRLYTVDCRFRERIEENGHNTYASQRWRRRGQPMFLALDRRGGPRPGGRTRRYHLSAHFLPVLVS
* = called active by the depositor; i = inactive; ? = inconclusive; · = no result given. Some of the compounds tested; rates above refer to the full screens.

SMILES	UCH37 DUB inh	LANA-H2A inh	ALR H2O2 inh	B2AR ag	HNF4A DNA FP	Ecoli growth	FGF22 binding
CS(=O)(=O)Nc1cccc(C2=NN(C(=O)c3ccco3)C(c3ccco3)C2)c1 (centres undefined)	1.7	3.7	-4	-1	0.4	0.7	i
CC(NC(=O)CSc1nc2ccccc2n1C)c1ccccc1 (centres undefined)	1.0	5.2	-2	-3	-0.2	0.65	i
CCC(C)[C@H]1CNCCN1CCc1cccc2ccccc12 (some centres undefined)	2.6	4.6	-3	7	-0.3	·	i
COc1ccc(S(=O)(=O)NCc2csc(C)n2)cc1	1.4	-3.3	-9	2	21	0.69	·
Cc1c(N(C(=O)Cc2cccs2)C2(C(=O)NC3CCCC3)CCCCC2)c(=O)n(-c2ccccc2)n1C	2.9	4.0	·	-11	1.1	0.69	i
CC1(OC(=O)C2CCCC2)C(=O)C=C2C=C3CCCCN3C=C2C1=O (centres undefined)	3.1	2.2	-9	-9	-8.6	0.81	·
Cc1cc(=O)[nH]c(SCC(=O)Nc2cccc(S(=O)(=O)N3CCOCC3)c2)n1	5.0	-1.2	14	7	2.7	0.69	i
COCCN(C(=O)COc1ccccc1C#N)c1c(N)n(Cc2ccccc2)c(=O)[nH]c1=O	-0.3	-3.2	-5	7	-0.9	0.62	i
CCOC(=O)C1CCN(S(=O)(=O)c2cccc(-c3cn4cccc(C)c4n3)c2)CC1	-1.8	8.4	-6	2	0.8	0.68	·
Cc1ccccc1OCc1nnc2n1CC(C)S2 (centres undefined)	0.3	-1.7	·	-2	5.8	0.7	i

Four compounds from above, reduced to FGF22 binding and UCH37 DUB inh:
smiles,FGF22 binding,UCH37 DUB inh
Cc1cc(=O)[nH]c(SCC(=O)Nc2cccc(S(=O)(=O)N3CCOCC3)c2)n1,i,5.0
CCOC(=O)C1CCN(S(=O)(=O)c2cccc(-c3cn4cccc(C)c4n3)c2)CC1,·,-1.8
COc1ccc(S(=O)(=O)NCc2csc(C)n2)cc1,·,1.4
Cc1c(N(C(=O)Cc2cccs2)C2(C(=O)NC3CCCC3)CCCCC2)c(=O)n(-c2ccccc2)n1C,i,2.9

(cont.)
SMILES	UCH37 DUB inh	LANA-H2A inh	ALR H2O2 inh	B2AR ag	HNF4A DNA FP	Ecoli growth	FGF22 binding
CCOc1ccc(NC(=O)CN2CCN(CC(=O)Nc3cccc(F)c3)CC2)cc1	3.4	3.0	-14	-9	1.2	0.76	·
O=C(COc1ccc(Cl)cc1)Nc1cc2c3c(c1)CC(=O)N3CCC2	3.5	-4.7	-10	-4	-3.5	0.64	i
COC(=O)CSc1nc2c(c(=O)n(C)c(=O)n2C)n1CCCc1ccccc1	2.4	3.2	-4	8	-7.0	0.74	·
CCOc1ccc(-c2cn(-c3ccc(OC)cc3)c(SC)n2)cc1	·	-2.2	-2	10	-5.4	·	·
OCC(CO)(CO)N=Cc1cc(Br)ccc1O	3.1	-4.0	-8	13	-2.8	0.66	i
O=C(c1ccc(F)cc1)c1ccc(N2CCCCC2)cc1	-17	0.2	-11	-11	0.4	0.66	i
CC1(c2ccc3noc(-c4ccccc4)c3c2)OCCO1	1.9	0.8	-9	-8	-0.6	0.72	·
C=CCN(CC=C)C(=S)NC(=O)c1ccc(C)c(Br)c1	2.8	0.7	2	6	4.0	0.68	·
Cc1ccc(NC(=O)CN(C)C(=O)Cn2c(=O)oc3ccccc32)cc1	0.8	0.0	-6	-33	-0.8	0.66	i
CC(=O)NCCN1C(=O)S/C(=C\c2cccs2)C1=O	14	1.9	-4	-2	-14	0.69	i
Cc1ccc(C(=O)N2C(CC(=O)Nc3ccc(Cl)cc3)C(=O)NC3CCCCC32)cc1 (centres undefined)	4.0	-0.2	2	-12	-0.5	0.69	i
COc1cccc(C(=O)N2CCN(Cc3ccc(OC)cc3OC)CC2)c1	-0.7	22	-4	-3	8.8	0.65	i
C/C(=N/NC(=O)c1ccc(Cl)s1)c1ccc(NC(=O)COc2ccc(Cl)cc2)cc1	·	9.7	-2	13	0.2	·	·
COC(=O)c1cc(NC(=O)CN2CCc3cc4c(cc3C2)OCCCO4)cc(C(=O)OC)c1	4.3	-5.8	-7	7	4.1	0.72	i
CCCCn1c(N)c(N(CC(C)C)C(=O)c2c(CC)noc2C)c(=O)[nH]c1=O	3.0	0.2	-5	-4	-0.3	0.6	i
COc1ccc(OC)c(S(=O)(=O)N2CCCC(C(=O)N3CCCCCC3)C2)c1 (centres undefined)	-1.7	-0.8	-9	6	-3.2	0.7	i
O=C(NC(Nc1nc2ccc([N+](=O)[O-])cc2s1)(C(F)(F)F)C(F)(F)F)c1cccnc1	9.8	-3.0	-12	21	2.8	0.61	i
Cc1cc(C)c(OCC(=O)OCC(=O)NCC2CCCCC2)c(C)c1	1.7	12	13	-2	1.8	0.67	i
COc1ccc(OC)c(S(=O)(=O)Nc2cc3c4c(c2)CCC(=O)N4CCC3)c1	4.2	2.5	·	1	-0.9	0.67	i
CCOc1ccc(C(CC(=O)O)NC(=O)c2cccs2)cc1 (centres undefined)	0.8	2.5	-5	-1	-2.3	0.69	i
COc1ccc(NC(=O)Nc2cc(C)ccc2OC)cc1	1.5	2.3	-6	19	4.6	0.73	·
O=C(Oc1ccc(Nc2ncnc3ccccc23)cc1)c1cccnc1	3.8	·	·	5	1.1	0.7	i
Cn1cc(CN2CCCC(C(=O)c3ccc(-c4ccccc4)cc3)C2)cn1 (centres undefined)	2.9	-2.4	-10	-1	0.2	0.69	i
COc1cc(C(=S)N2CCCC2)ccc1O	1.3	1.2	94*	-6	0.2	0.74	·
Cc1c(C(=O)NCc2ccccc2F)oc2ccccc12	4.0	1.4	-8	5	6.0	0.65	i
Cc1cc(C)cc(OCC(=O)N(Cc2ccccc2)C2CCS(=O)(=O)C2)c1 (centres undefined)	3.2	5.1	-3	-5	2.0	0.65	i
CCCCOC(=O)c1nnc(-c2ccc(Cl)cc2)o1	1.7	-2.3	-11	-1	1.9	0.65	i
COc1ccc(CC(=O)OCC(=O)NCc2ccccc2Cl)cc1	2.0	-4.4	1	7	3.7	0.73	i
Cc1ccc(N(CCC#N)C(=O)CCl)cc1C	-1.7	1.0	7	4	2.1	0.71	i
c1ccc(OCCOc2ccccc2-c2nnco2)cc1	5.0	0.2	-4	·	1.6	0.75	·
Cc1nc(N2N=C(c3ccc(Cl)cc3)CC2c2ccco2)sc1C(=O)N(C)C (centres undefined)	-188	-2.2	-4	2	-0.6	0.7	i
COc1cc(CNCCC2CCOC(C)(C)C2)ccc1O (centres undefined)	0.9	-3.9	37	4	-1.8	0.75	·
COc1cccc(/C=C/C(=O)c2c(O)cc(C)oc2=O)c1O	3.8	-2.1	68	2	-2.1	0.73	·
Cc1ccc(CCNC(=O)CNC(=S)N(Cc2ccccc2)Cc2cccnc2)cc1	2.3	1.5	·	-2	-1.6	0.68	i
CN1CCN(C(=O)C2=C[C@@H](c3ccccc3)C[C@@H](OCc3ccc(CO)cc3)O2)CC1	-0.3	5.6	-3	-7	-1.4	·	i
CCOc1cc(C)c(C(C)C)cc1S(=O)(=O)n1cnc(C)c1	1.1	2.1	-13	-14	-0.8	0.68	i
CCSc1nc(=O)n(-c2ccccc2)c(C)c1C(C)=O	1.5	-8.3	-3	-1	3.4	0.66	·
CCCCCCCCOC(=O)/C=C/c1c(C)[nH]c(=O)[nH]c1=O	0.9	-3.5	-3	-5	2.7	0.71	i
CC(Sc1ccc(Br)cc1)C(N)=O (centres undefined)	3.9	-2.9	·	-2	-2.5	0.64	·
O=C(N/N=C/c1ccco1)Nc1ccccc1	·	1.9	?	-1	0.0	·	·
C=CCC1(CC=C)CCCN1C(=O)CC1C(=O)NCCN1Cc1ccccc1OC (centres undefined)	0.1	1.0	-4	11	1.9	0.65	·
CN(C)c1ccc(/C=C(/NC(=O)c2ccccc2)C(=O)NCCN2CCOCC2)cc1	14	-1.3	99*	-6	5.3	0.69	i
CCN(C(=O)COC(=O)CC(C)c1ccccc1)c1c(N)n(Cc2ccccc2)c(=O)[nH]c1=O (centres undefined)	0.1	-7.2	-4	-2	1.0	0.64	i
CCOC(=O)c1ccccc1NC(=O)c1ccc2nccnc2c1	-3.8	0.9	-6	7	-16	0.72	i
CN(C)C(=O)CNC(=O)CN1C(=O)NC2(CCCc3sccc32)C1=O (centres undefined)	-0.8	-1.0	-2	-2	-0.5	0.72	i
Clc1ccc(N2CCN(c3cnc4ccccc4n3)CC2)cc1	1.8	2.0	-2	-3	-0.7	0.6	·
O=C(/C=C(\c1ccc(Cl)cc1)n1cncn1)c1ccc(Cl)cc1	3.5	4.8	-8	-5	-1.2	0.67	·
CN(C(=O)CSc1nnc(CNC(=O)c2ccccc2)o1)c1ccccc1	0.8	1.9	-8	-9	-0.3	0.69	i
Cc1ccc(-c2csc(NC(=O)CN3CCC(C(N)=O)CC3)n2)cc1	2.1	-5.1	-7	0	-3.1	0.66	i
CCN(CC)c1ccc(C=Nc2ccc(C)cc2C)c(O)c1	7.7	4.1	-2	20	2.7	0.72	i
Further compounds follow:
SMILES	UCH37 DUB inh	LANA-H2A inh	ALR H2O2 inh	B2AR ag	HNF4A DNA FP	Ecoli growth	FGF22 binding
Cc1nn(CC(=O)NC(=O)c2ccccc2)c(C)c1[N+](=O)[O-]	5.6	-3.5	-3	1	-2.2	0.69	i
O=C(NC1CCCCC1)[C@H](O)[C@@H](O)C(=O)NC1CCCCC1	2.4	-0.1	-1	-2	-0.1	·	·
CC(C)c1ccc(C2CC(c3ccc(Br)cc3)=NN2C(N)=S)cc1 (centres undefined)	4.3	-0.1	-5	-3	0.8	0.62	·
COCCn1c(SCC(=O)c2c[nH]c3ccccc23)nnc1-c1ccncc1	7.3	·	·	4	1.7	0.71	·
CN(C)CCCCCCCCCCC(=O)/C=N/O	·	2.4	-12	4	3.1	·	i
O=C(N/N=C\c1c(O)ccc2ccccc12)c1cncc(Br)c1	·	-29	-63	-4	140	·	i
COc1ccc(-n2ncc3c(=O)n(CC(C)=O)cnc32)cc1	1.8	0.8	-11	8	1.8	0.68	i
CC1(OC(=O)CCc2ccccc2)C(=O)C=C2C=C(c3ccc(C#N)cc3)N(CCN3CCOCC3)C=C2C1=O (centres undefined)	0.8	-1.0	-16	-2	2.9	0.62	i
CCOc1ccc(CNC(=O)c2ccc(Sc3ccc(C)cc3)c(NC(C)=O)c2)cc1OC	2.3	3.1	-9	12	3.0	0.71	i
CC(=O)N1CCOc2ccc(S(=O)(=O)NCCc3ccc(S(N)(=O)=O)cc3)cc21	0.9	4.6	6	3	-3.1	0.6	i
CCOC(=O)c1cc(CN2CCOCC2)oc1-c1ccccc1	1.0	5.8	45	-8	1.7	0.65	·
COc1ccc(N2CCN(C(=O)C3CCN(S(=O)(=O)c4c(C)noc4/C=C/N(C)C)CC3)CC2)cc1	11	1.3	-11	-1	2.9	0.67	i
CN(C(=O)CSc1nnc(Nc2ccccc2)s1)C1CCS(=O)(=O)C1 (centres undefined)	1.3	0.6	-5	-7	2.1	0.67	·
CN(C(=O)COC(=O)CCc1nc2ccccc2c(=O)[nH]1)C1CCS(=O)(=O)C1 (centres undefined)	1.2	2.1	·	19	1.3	0.7	i
CN(Cc1ccccc1)C(=O)C1CCC(CNS(=O)(=O)c2cccc3cccnc23)CC1 (centres undefined)	1.3	-0.5	-6	5	-0.2	0.63	i
Cc1cnc(C(=O)OCC(=O)Nc2cc(-c3cc(C)c(C)cc3C)nn2-c2ccccc2)cn1	1.7	2.8	58	-2	-1.5	0.64	i
CC(N=Cc1ccccc1O)c1ccccc1 (centres undefined)	0.5	-308	0	13	1.1	0.67	·
Cc1cccn2c(CNC3CCCc4ccccc43)c(C(=O)N3CCCCC3)nc12 (centres undefined)	-1.5	-0.6	·	0	4.4	0.71	i
CC1CCc2nn(CC(=O)NCc3ccc4c(c3)OCO4)cc2C1 (centres undefined)	4.9	1.1	-7	-2	2.7	0.77	i

Screening results deposited in PubChem BioAssay by several laboratories.
